Sa growth inh: S. aureus growth inhibition. actives 0.53% (n = 170,000). relative growth, % (test concentration not listed). S. aureus RN4220 growth, OD600, 20 h, 42 °C; stronger effect = lower value;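 active = growth at 42 °C up to 50% and 20 or more points under that at 30 °C, or under 10% at both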;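 also: 300 nL library stock went into each well; scaled to the means of positive and negative controls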
GIV-Gai inh: blocks GIV peptide binding to rat Galpha-i3; P08753; Galpha-i3/FITC-GIV peptide fluorescence polarization, 90 min; stronger effect = lower value; scaled: aluminum fluoride 0%, vehicle 100%; percent of control (FP), % (concentration not given with the values); actives 0.42% (n = 210,000); AID 1224905;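 active = replicate mean at 85% of control or lower, very high polarization wells dropped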;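 also: wells of about 15 µL received 100 nL stock; the first replicate is given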
Target sequence (P08753 whole entry, looked up): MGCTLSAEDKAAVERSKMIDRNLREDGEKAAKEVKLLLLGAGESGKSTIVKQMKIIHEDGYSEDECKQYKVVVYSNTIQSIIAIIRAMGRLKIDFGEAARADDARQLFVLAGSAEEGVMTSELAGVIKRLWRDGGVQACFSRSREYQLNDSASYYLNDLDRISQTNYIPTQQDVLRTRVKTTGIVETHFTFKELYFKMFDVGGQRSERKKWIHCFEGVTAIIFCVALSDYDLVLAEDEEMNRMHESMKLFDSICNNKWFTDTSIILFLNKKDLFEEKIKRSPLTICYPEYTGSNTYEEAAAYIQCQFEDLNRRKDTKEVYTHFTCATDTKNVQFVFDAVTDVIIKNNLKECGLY
HCMV NEC inh: inhibitors of HCMV UL50-UL53 nuclear egress complex interaction; HTRF UL50-UL53 interaction, normalized percent inhibition; inhibition, % (test concentration not listed); actives 0.15% (n = 190,000); AID 1918969;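 active = both replicates at 50% or more, plus weaker picks with an unusually low signal ratio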;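 also: stock transfer was 100 nL into about 20 µL; 0% = negative control wells and 100% = wells with untagged competitor protein; inactives centre near -12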
Sa growth inh second temp: also measured in Sa growth inh; calls as there; relative growth, %; measured here: growth at 30 °C;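 optical density after 20 h as mean of two plates; 100% = untreated growth and lower means inhibition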
The depositor's hits bear a star; . = not tested or not shown; & = joins results of further samples.

cpd	smiles	Sa growth inh	Sa growth inh second temp	GIV-Gai inh	HCMV NEC inh
1	COc1ccc(CCNc2nc3ccc(Cl)cc3n3cnnc23)cc1OC	99	81	102	-20
2	Cc1ccc(S(=O)(=O)NC(=O)NC2CCCc3ccccc32)cc1 (stereo unspecified)	112	87	99	-4
3	O=C1C=C(c2ccccc2)C(=O)c2ccccc21	3.8*	3.1*	104	-31
4	Cc1ccc2c(=O)cc(C(=O)Nc3nc4ccc(Cl)cc4s3)oc2c1C	97	60	100	3
5	Cc1ccc(NC(=O)c2cnc(N3CCCCC3)c3ccccc23)c(C)c1	127	91	105	.
6	CC1CCN(c2nn3c(N)c(/C=C4\C=Nc5ccccc54)c(=O)nc3s2)CC1	92	86	108	.
7	COc1ccc2c(c1)c(=O)c(C(=O)c1ccccc1)cn2CC(=O)Nc1ccc2c(c1)OCCO2	92	87	101	-43
8	COc1ccc(N2CCN(C(=O)c3cc4c(=O)n(Cc5cccs5)ccc4nc3C)CC2)cc1	102	101	153	.
9	Clc1ccccc1-c1nnc(SCc2nc(-c3ccccc3)no2)n1-c1ccccc1	105	83	107	-6
10	COc1ccc(-c2nc(-c3ccccc3)c(-c3ccccc3)[nH]2)cc1Br	80	92	103	-8
11	CC1CC(C)CN(C(=O)COC(=O)/C=C/c2cccc(F)c2)C1 (stereo unspecified)	100	87	.	-56
12	O=S(=O)(c1ccccc1)c1nc(-c2ccccc2Cl)oc1N1CCCCCC1	114	94	102	6
13	Cc1ccc(Cl)cc1NC(=O)CSc1ccc(C(=O)O)cn1	115	90	98	-20
14	O=C(c1c(-c2ccccc2)nnc2ccccc12)N1CCCC1	.	.	94	-72
15	CCc1ccccc1NC(=O)c1cc(-c2ccc3c(c2)OCO3)on1	92	106	107	9
16	COc1ccc(S(=O)(=O)N2CCc3cc4ccc(C)cc4nc32)cc1Cl	.	.	98	-3
17	COc1ccccc1Nc1nn2c(=O)c3ccc(C(=O)NC(C)c4ccccc4)cc3nc2s1 (stereo unspecified)	101	66	105	.
18	Cc1ccc2nc(Nc3cccc(C(F)(F)F)c3)c3nnnn3c2c1	98	97	104	.
19	CC(=O)N1c2ccccc2CC1C(=O)N1CCN(c2cccc(Cl)c2)CC1 (stereo unspecified)	91	91	98	.
20	Cc1cc(C(=O)N2CCCC2c2ccc(F)cc2)no1 (stereo unspecified)	.	.	103	5
21	COc1ccc(C(=O)Nc2nonc2NC(=O)c2ccc(OC)cc2)cc1	87	93	99	.
22	CCOC(=O)CSc1nc2cc(C(=O)OC)ccc2c(=O)n1CCc1ccc(S(N)(=O)=O)cc1	105	75	99	-44
23	CCCn1c2ccccc2c2cnn(CC(=O)N3CCC(C(=O)OCC)CC3)c(=O)c21	88	94	106	.
24	Cc1cc(Cl)ccc1NS(=O)(=O)c1ccc2c(c1)CC(C)N2C(=O)C1CCC1 (stereo unspecified)	89	122	108	.
25	NC(=O)Cn1c(=O)c2ccccc2n(CC(N)=O)c1=O	90	91	.	-13
26	O=c1c2cc(NC(=S)Nc3cccc(C(F)(F)F)c3)ccc2nc2n1CCCCC2	86	69	104	.
27	O=C(N/N=C/c1c(Cl)nc2ccccn12)c1ccncc1	100	84	.	-65
28	COc1c(C(=O)O)csc1Br	105	89	102	-4
29	O=c1[nH]c(SCc2ccccc2)nc(O)c1Cc1ccccc1	115	118	102	-10
30	CCOc1ccc(CCNCc2c(C(=O)O)c(C)n(Cc3ccccc3F)c2C)cc1	119	97	108	-34
31	C=CCn1c(=O)c(C(=O)Nc2ccccn2)c(O)c2ccccc21	.	.	102	-28
32	Cn1cc(C(=O)NC2CCCC2)c2[nH]c(=O)n(-c3ccccc3)c(=O)c21	.	.	105	10
33	CCN1CCN(C2(CNC(=O)c3cccs3)CCCCC2)CC1	.	.	104	-14
34	CCn1c(=O)n(CC)c2cc(N3CCCC3)c(NC(=O)Nc3ccc(OC)cc3OC)cc21	.	.	109	-9
35	Cn1c(=O)c2c(-c3ccccc3)n3c(c2n(C)c1=O)C(c1ccc(O)cc1O)Nc1ccccc1-3 (stereo unspecified)	.	.	101	-10
36	Cc1oc(-c2ccccc2)nc1CS(=O)CC(=O)O (stereo unspecified)	101	99	101	-11
37	COc1ccc(OC)c(CNC(=O)CCCn2ccc3cc(S(=O)(=O)N4CCCC4)ccc32)c1	92	79	103	.
38	O=C(CN1CCc2ccccc21)Nc1cccc(C(F)(F)F)c1	91	98	.	14
39	CCc1ccccc1NC(=O)N1CCc2c([nH]c3ccccc23)C1c1cccnc1 (stereo unspecified)	.	.	102	-2
40	O=C(c1cc2ccccc2o1)N(C1CC1)C1CCS(=O)(=O)C1 (stereo unspecified)	122	97	.	18
41	Cc1oc2ncn(CC(C)C)c(=O)c2c1C(=O)NCCCN1CCCCC1	102	92	106	.
42	CC(C)c1ccc(NC(=O)CN(C)S(=O)(=O)c2ccc3c(c2)c(=O)n(C)c(=O)n3C)cc1	99	90	99	-6
43	COC(=O)C1=C(c2ccccc2)c2cc(Cl)ccc2S(=O)(=O)N1CC(=O)Nc1cccc(Cl)c1	.	.	98	-36
44	CC(NC(=O)CS(=O)(=O)c1ccccc1)c1ccccc1 (stereo unspecified)	97	101	98	20
45	COc1ccc(NCCC(=O)O)cc1	112	83	.	-28
46	Cc1ccc(NC(=S)N2CCCC(c3ccccc3)=N2)cc1	104	81	105	-36
47	Cc1ccccc1CNC(=O)c1c(C)oc2c1C1=NCCN1C=N2	98	94	109	.
48	O=C1CC(SCCc2nc3ccccc3[nH]2)C(=O)N1c1ccc(F)cc1 (stereo unspecified)	94	93	107	7

Results in sequence from the entries so far.
Compounds 6–15 in Sa growth inh second temp: 86, 87, 101, 83, 92, 87, 94, 90, ., 106
Compounds 6–15 in Sa growth inh: 92, 92, 102, 105, 80, 100, 114, 115, ., 92
Compounds 6–15 in HCMV NEC inh: ., -43, ., -6, -8, -56, 6, -20, -72, 9

Going on with the list:
cpd	smiles	Sa growth inh	Sa growth inh second temp	GIV-Gai inh	HCMV NEC inh
49	Clc1ccc(Nc2c(-c3ccccc3Cl)nc3ccc(Cl)cn23)cc1	102	88	106	7
50	COc1ccc(CCN2C(=S)N(c3cccc(C(F)(F)F)c3)C(=O)C2CC(N)=O)cc1OC (stereo unspecified)	83	93	.	-9
51	O=C(Cn1nc2ccc(S(=O)(=O)C3CCCCC3)nn2c1=O)Nc1ccc(F)cc1F	.	.	116	-28
52	O=C(CCS(=O)(=O)c1nc(-c2cccs2)cc(C(F)(F)F)n1)Nc1cccc(O)c1	86	56	105	-39
53	Cc1ccccc1NC(=O)CSc1nc(-c2ccc(F)cc2)nc2c1Cc1ccccc1O2	110	86	106	-25
54	COc1ccc(OCCN2CCN(S(=O)(=O)c3ccc(Cl)s3)CC2)cc1	106	100	.	3
55	COCCNS(=O)(=O)c1c[nH]c(-c2nnc(C)o2)c1	.	.	104	-36
56	CCOC(=O)c1cnc2ccc(OCC)cc2c1NCCc1ccc(OC)c(OC)c1	104	102	99	5
57	Cc1cccc(N2C(=O)CS/C2=N/NC(=O)c2cccc(Cl)c2)c1	152	111	110	3
58	O=C(CCN1C(=O)c2ccccc2Sc2ncccc21)Nc1ccc(F)cc1	97	94	101	.
59	COc1cc(CNc2ccc3c(c2)ncn3C(C)C)cc(OC)c1OC	105	86	103	-21
60	CC(=O)Nc1ccc(C(=O)OC2CCCCC2)cc1	92	93	105	-2
61	COc1ccccc1-c1c(C(F)(F)F)oc2c(CN3CCN(C)CC3)c(O)ccc2c1=O	.	.	102	-8
62	O=C(COc1cccc2cccnc12)c1ccccc1	121	94	.	-68
63	CSc1nnc(C)n1Cc1ccccc1	119	102	.	-8
64	NC(=O)C1CCN(C(c2ccccc2)c2sc3ncnn3c2O)CC1 (stereo unspecified)	108	101	101	15
65	COc1ccc(Nc2ncc(C(=O)Nc3ccc(F)cc3F)c3ccccc23)cc1	121	92	97	-10
66	CCOc1cc(C2Nc3ccccc3NC3=C2C(=O)CC(c2ccc(OC)c(OC)c2)C3)ccc1O (stereo unspecified)	.	.	101	-30
67	Cc1nc(N2CCN(c3ccccn3)CC2)c2c(C)c(C(=O)NCc3ccccn3)sc2n1	.	.	105	-17
68	CC1=Nc2cc(C(=O)O)ccc2Sc2ccc(Br)cc21	65	53	101	.
69	Cn1cc(S(=O)(=O)c2ccc(Cl)cc2)c(=O)c2cc(F)ccc21	78	64	99	.
70	O=c1c2ccccc2n(Cc2c(F)cccc2Cl)c(=O)n1CCc1ccccc1	104	91	108	-11
71	CCc1cccc(C)c1NC(=O)c1cc(C)nc2c1c(C)nn2-c1cccc(Cl)c1C	95	87	102	.
72	S=C1NC(=S)NC(c2ccc3c(c2)OCO3)N1	106	104	106	-3

Full records as entered above. Order of values: Sa growth inh | Sa growth inh second temp | GIV-Gai inh | HCMV NEC inh
CCOc1cc(C2Nc3ccccc3NC3=C2C(=O)CC(c2ccc(OC)c(OC)c2)C3)ccc1O (stereo unspecified) across the screens: . | . | 101 | -30
Cc1nc(N2CCN(c3ccccn3)CC2)c2c(C)c(C(=O)NCc3ccccn3)sc2n1 across the screens: . | . | 105 | -17
NC(=O)C1CCN(C(c2ccccc2)c2sc3ncnn3c2O)CC1 (stereo unspecified) across the screens: 108 | 101 | 101 | 15
Cn1cc(S(=O)(=O)c2ccc(Cl)cc2)c(=O)c2cc(F)ccc21 across the screens: 78 | 64 | 99 | .
O=c1c2ccccc2n(Cc2c(F)cccc2Cl)c(=O)n1CCc1ccccc1 across the screens: 104 | 91 | 108 | -11

(further entries)
cpd	smiles	Sa growth inh	Sa growth inh second temp	GIV-Gai inh	HCMV NEC inh
73	Cc1c(Cl)cccc1NC(=O)c1ccc(NC(=O)N2CCSc3ncccc32)cc1	107	93	103	.
74	COc1cccc(N2CCN(Cc3ccsc3)CC2)c1	100	109	108	-1
75	COc1ccc2[nH]c(=O)c(C(c3nnnn3Cc3ccccc3)N(C)C3CCCCC3)cc2c1 (stereo unspecified)	92	96	100	-26
76	CCOC(=O)c1c(C)oc2ccc(OCC(=O)C(C)(C)C)cc12	90	82	102	-16
77	Cc1ncc(S(=O)(=O)Cc2cccs2)c(N)n1	102	97	103	-16
78	Cc1cc(C(=O)OCC(=O)NCc2ccccc2)c(C)o1	88	89	.	-30
79	Cc1nc(-c2ccc(S(=O)(=O)Nc3ccc(Cl)c(C(F)(F)F)c3)cc2)co1	97	89	106	.
80	C=CCn1c(C)cc(C(=O)Cn2c(C)nc3cc4c(cc32)OCCO4)c1C	98	93	.	-9
81	NC(N)=NC(N)=Nc1ccccc1	.	.	103	-3&-24
82	COc1ccc(NC(=O)C(=O)NCc2ccco2)c(OC)c1	99	99	106	25
83	CN(Cc1ccccc1)C(=O)COc1ccccc1	115	80	.	-8
84	CC(C)(C)OC(=O)N1CCC(c2nnc(SCc3ccccc3Cl)o2)CC1	93	93	102	-3
85	CN(C)c1ccc(CNC(=O)c2ccccc2NC(=O)c2nsc3ccccc23)cc1	106	82	108&101	.
86	COc1cccc(NC(=O)COc2ccccc2OC)c1	91	84	.	-11
87	COc1ccc(C(=O)Nc2cc(C)c(O)c(-c3nc4ccccc4s3)c2)cc1OC	97	91	106	-15
88	CC(C)(C)NC(=O)NCC1CCCC1NC(=O)NC(C)(C)C (stereo unspecified)	91	87	101	-35
89	COc1cc(-c2c(C#N)c(SCC#N)nc(N)c2C(=O)OC(C)C)cc(OC)c1OC	100	88	.	63*
90	CCN1CCN(C(=O)c2cc(-c3ccccc3O)no2)CC1	91	89	104	-6
91	CCC(C)NC(=O)c1ccc2cn[nH]c2c1 (stereo unspecified)	98	100	105	3
92	CN1C/C(=C/c2ccc3c(c2)OCCO3)C(=O)/C(=C/c2ccc3c(c2)OCCO3)C1	90	88	.	-10
93	COC(=O)Cn1c(=O)c(C)nc2ccccc21	79	91	97	-30
94	Nc1nc2ccc(NC(=O)C3CCC(C(=O)O)CC3)cc2s1 (stereo unspecified)	105	82	100	-3
95	COc1cc(C(=O)OCc2nnc(-c3ccc(Cl)cc3)o2)cc(CN2C(=O)c3ccccc3C2=O)c1OC	100	73	.	-2
96	CCCCN(Cc1ccccc1)Cc1ccccc1O	100	95	105	-6
97	FC(F)Oc1ccc(/C=N/N2CCOCC2)c(OC(F)F)c1	67	74	.	-21
98	COc1ccc2c(c1)-c1nc(NC(=O)c3cc(OC)c(OC)c(OC)c3)sc1CC2	106	81	110	-11

Screens deposited in PubChem by ICCB-Longwood Screening Facility, Harvard Medical School.
